Compound activity deposited in PubChem by several laboratories.
GALR2 agonist: agonists of human galanin receptor 2 (GALR2). GALR2-expressing cells, agonist activation read-out. activation, %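 (tested at 5 µM)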. 140,000 tested, 0.48% active. AID 803;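 active = above mean plus 3 SD of all compounds, about 5% in these data, not always enough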;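 also: 0% = vehicle buffer wells and 100% = reference agonist at full effect; tested in CHO reporter cells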
Target sequence (O43603 whole entry, looked up): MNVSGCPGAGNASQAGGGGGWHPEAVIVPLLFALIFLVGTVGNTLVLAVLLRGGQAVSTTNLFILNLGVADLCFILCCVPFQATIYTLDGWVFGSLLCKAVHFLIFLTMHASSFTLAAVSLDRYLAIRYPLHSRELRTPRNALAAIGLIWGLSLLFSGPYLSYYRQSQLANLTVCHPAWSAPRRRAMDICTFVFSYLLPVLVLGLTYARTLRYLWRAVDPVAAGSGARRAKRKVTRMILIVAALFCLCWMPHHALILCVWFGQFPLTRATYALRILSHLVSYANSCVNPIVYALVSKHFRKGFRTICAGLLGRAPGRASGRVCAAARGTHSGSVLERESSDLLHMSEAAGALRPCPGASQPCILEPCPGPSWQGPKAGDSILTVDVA
INS promoter inh: TRM-6 insulin promoter activity inhibition; inhibition, % at 2 µM; TRM-6 cells (human fetal islet line), insulin promoter-eGFP reporter, imaging; reporter expression induced with tamoxifen; AID 1273; 130,000 tested, 0.9% active;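 active = inhibition above the mean plus 3 SD, with well images judged a real hit on visual review, cut at about 60% in these data, passing the limit was not always enough; inconclusive = inhibition over the cutoff but images rejected on review; inactive = inhibition not above the cutoff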
HSV augment: HSV replication enhancement | HSV replication augmentation in cells, fold increase | 220,000 tested, 0.005% active | maximum fold increase;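 active = peak rise of 1.5-fold or more in the series; inconclusive = self-fluorescent or not available for retest; tested in PC3 cells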;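 also: first round at 10 µM; read as green reporter fluorescence; hits show the peak of a series up to 25 µM; 1 = signal of infected wells without compound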
PKD1 kinase inh: inhibitors of human PKD1 kinase; AID 797; inhibition, %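 (about 10 µM by stock and volumes)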; Q15139; 200,000 tested, 0.056% active; PKD1 kinase fluorescence polarization assay;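 active = inhibition of 50% or more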;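 also: controls were vehicle for no effect and a reference inhibitor for full effect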
RGS16-Gao: regulators of human RGS16-Galphao interaction; bead-based flow cytometry RGS16-Galphao binding, fluorescence; actives lie on both sides; binding response (% of control), % at 10 µM; O15492+P09471; 220,000 tested, 0.38% active;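 active = below 25% or above 175%, edge rows of some plates excepted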;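 also: Galphao activated by GDP with aluminum fluoride before binding; 100% = wells without compound and 0% = beads without RGS; some results beyond the cut were filed as inactive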
Target sequence (O15492 whole entry, looked up): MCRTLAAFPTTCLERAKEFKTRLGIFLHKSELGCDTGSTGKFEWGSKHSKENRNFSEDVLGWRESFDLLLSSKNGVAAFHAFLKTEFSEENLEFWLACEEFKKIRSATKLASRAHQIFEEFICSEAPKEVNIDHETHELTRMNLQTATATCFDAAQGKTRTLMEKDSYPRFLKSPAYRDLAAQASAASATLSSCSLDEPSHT
Target sequence (P09471 whole entry, looked up): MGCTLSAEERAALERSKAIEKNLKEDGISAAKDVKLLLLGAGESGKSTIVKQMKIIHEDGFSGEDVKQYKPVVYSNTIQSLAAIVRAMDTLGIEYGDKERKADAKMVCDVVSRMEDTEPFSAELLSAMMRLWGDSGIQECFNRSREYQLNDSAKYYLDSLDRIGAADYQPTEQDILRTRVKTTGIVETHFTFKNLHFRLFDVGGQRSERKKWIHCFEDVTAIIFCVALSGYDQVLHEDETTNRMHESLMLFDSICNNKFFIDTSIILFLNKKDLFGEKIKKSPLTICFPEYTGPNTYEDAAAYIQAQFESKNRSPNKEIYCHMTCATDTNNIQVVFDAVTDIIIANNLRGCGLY
INS promoter inh cell count: further read-out of INS promoter inh, marked with its call; normalized cell count, %; measured here: cell count, toxicity; reference of the scale not given here;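 cells exposed to compound for 48 h; stained nuclei by imaging scaled within each plate; lower means fewer cells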
HSV augment primary fold: further read-out of HSV augment, marked with its call; fold increase; compound at 10 µM; measured here: primary screen fold increase 10 uM; tested in PC3 cells;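 GFP signal in the first replicate; 1 = infected wells without compound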
* marks the source's active call; other numbers are inactive results. Rows were taken by chance; overall some 1.3% were active at least once.

What do the screens show for `Cc1cccc(NC(=O)CSc2nnc(NC(=O)c3ccco3)s2)c1`?
INS promoter inh: -66.7; HSV augment: inactive; PKD1 kinase inh: 3.1; RGS16-Gao: 98.7; INS promoter inh cell count: 89.1; HSV augment primary fold: 0.88

Results for Cc1cccc(C(=O)Nc2nnc(-c3ccncc3)o2)c1 ?
INS promoter inh: -27.8; HSV augment: inactive; PKD1 kinase inh: -4.9; RGS16-Gao: 99.3; INS promoter inh cell count: 78.1; HSV augment primary fold: 1.04

What do the screens show for `N/C(=N\OC(=O)c1ccc([N+](=O)[O-])cc1)c1ccccn1`?
INS promoter inh: 40.0; HSV augment: inactive; PKD1 kinase inh: -6.0; RGS16-Gao: 103.4; INS promoter inh cell count: 136.7; HSV augment primary fold: 0.95

How did COc1cc(/C=N/NC(=O)CN(Cc2ccco2)S(=O)(=O)c2ccccc2)ccc1O do in these assays?
GALR2 agonist: 0.4; HSV augment: inactive; PKD1 kinase inh: 1.9; RGS16-Gao: 92.9; HSV augment primary fold: 0.89

How did N#CCCCSc1nnc(-c2ccc(Cl)cc2)n1-c1ccccc1 do in these assays?
GALR2 agonist: -1.9; HSV augment: inactive; PKD1 kinase inh: -5.3; RGS16-Gao: 103.0; HSV augment primary fold: 0.78

How did Cc1ccc(/C=C/C(=O)O)cc1S(=O)(=O)NCCCC(=O)O do in these assays?
GALR2 agonist: -1.7; INS promoter inh: -83.9; HSV augment: inactive; PKD1 kinase inh: -9.6; RGS16-Gao: 107.2; INS promoter inh cell count: 79.2; HSV augment primary fold: 0.98

What do the screens show for `CCC(C)(C)NC(=O)C(c1ccccn1)N(C(=O)c1csnn1)c1ccc(C)cc1` (configuration not stated)?
HSV augment: inactive; PKD1 kinase inh: -3.5; RGS16-Gao: 105.7; HSV augment primary fold: 1.02

Results for COc1ccc2[nH]c3c(NCCCN4CCCC4=O)ncnc3c2c1 ?
GALR2 agonist: -2.2; INS promoter inh: -14.7; HSV augment: inactive; PKD1 kinase inh: -1.4; RGS16-Gao: 106.3; INS promoter inh cell count: 171.4; HSV augment primary fold: 1.01

What do the screens show for `Cc1nn(-c2ccccc2)c(Cl)c1C1C(C#N)=C(N)Oc2c1c(C)nn2-c1ccccc1` (configuration not stated)?
GALR2 agonist: 0.1; INS promoter inh: -8.1; HSV augment: inactive; PKD1 kinase inh: -8.7; RGS16-Gao: 100.6; INS promoter inh cell count: 172.3; HSV augment primary fold: 0.82

How did Cc1cc(SCn2nnc3ccccc3c2=O)nc2ccccc12 do in these assays?
GALR2 agonist: -0.3; INS promoter inh: 30.0; HSV augment: inactive; PKD1 kinase inh: -2.2; RGS16-Gao: 30.2; INS promoter inh cell count: 70.6; HSV augment primary fold: 0.96

How did CCOC(=O)N1CCN(C(=O)Cn2ncc3c2-c2ccccc2OC3)CC1 do in these assays?
GALR2 agonist: -0.3; HSV augment: inactive; PKD1 kinase inh: -0.4; RGS16-Gao: 62.2; HSV augment primary fold: 1.01

Results for COc1ccc(N2C(=O)/C(=C/N(C)C)NC2=S)cc1 ?
HSV augment: inactive; PKD1 kinase inh: -3.1; RGS16-Gao: 99.4; HSV augment primary fold: 0.89

Sorted by length of the SMILES (falling): part of the list above.
What do the screens show for `CCC(C)(C)NC(=O)C(c1ccccn1)N(C(=O)c1csnn1)c1ccc(C)cc1` (configuration not stated)?
HSV augment: inactive; PKD1 kinase inh: -3.5; RGS16-Gao: 105.7; HSV augment primary fold: 1.02

How did CCOC(=O)N1CCN(C(=O)Cn2ncc3c2-c2ccccc2OC3)CC1 do in these assays?
GALR2 agonist: -0.3; HSV augment: inactive; PKD1 kinase inh: -0.4; RGS16-Gao: 62.2; HSV augment primary fold: 1.01

How did Cc1ccc(/C=C/C(=O)O)cc1S(=O)(=O)NCCCC(=O)O do in these assays?
GALR2 agonist: -1.7; INS promoter inh: -83.9; HSV augment: inactive; PKD1 kinase inh: -9.6; RGS16-Gao: 107.2; INS promoter inh cell count: 79.2; HSV augment primary fold: 0.98

How did N#CCCCSc1nnc(-c2ccc(Cl)cc2)n1-c1ccccc1 do in these assays?
GALR2 agonist: -1.9; HSV augment: inactive; PKD1 kinase inh: -5.3; RGS16-Gao: 103.0; HSV augment primary fold: 0.78

(cont.)
What do the screens show for `CN(CCC#N)C(=O)CC(Cc1ccccc1)C1CCOC(C)(C)C1` (configuration not stated)?
HSV augment: inactive; RGS16-Gao: 85.5; HSV augment primary fold: 0.97

What do the screens show for `CCS(=O)(=O)c1ccc2oc(=O)c(/C=C(\O)c3ccc(Cl)cc3)nc2c1`?
INS promoter inh: 41.7; HSV augment: inactive; PKD1 kinase inh: 1.0; RGS16-Gao: 101.1; INS promoter inh cell count: 163.8; HSV augment primary fold: 0.97

Results for N=c1c2c(ncn1CCN1CCOCC1)Oc1cc(O)ccc1C2c1ccccc1 (configuration not stated) ?
HSV augment: inactive; RGS16-Gao: 94.0; HSV augment primary fold: 1.14

How did CC(c1ccccc1)c1nnc(NC(=O)c2ccc3c(c2)OCO3)s1 (configuration not stated) do in these assays?
HSV augment: inactive; RGS16-Gao: 100.1; HSV augment primary fold: 0.87

What do the screens show for `O=C(Nc1cccc2nsnc12)c1ccc(-c2ccc(Br)cc2)o1`?
GALR2 agonist: -1.2; INS promoter inh: 6.7; PKD1 kinase inh: 24.9; RGS16-Gao: 92.8; INS promoter inh cell count: 107.7

What do the screens show for `Cc1[nH]c(=S)c(C#N)c2c1CCCC2`?
HSV augment: inactive; PKD1 kinase inh: -3.0; RGS16-Gao: 84.3; HSV augment primary fold: 0.93

Results for O=C(O)Cc1c(C(=O)O)nnn1-c1cccc(C(F)(F)F)c1 ?
HSV augment: inactive; PKD1 kinase inh: -0.6; RGS16-Gao: 99.2; HSV augment primary fold: 1.23

How did O=C(Nc1ccccc1)ON=C1c2ccccc2-c2ccccc21 do in these assays?
GALR2 agonist: -1.7; INS promoter inh: 24.1; HSV augment: inactive; PKD1 kinase inh: 50.5*; RGS16-Gao: 104.7; INS promoter inh cell count: 99.2; HSV augment primary fold: 0.79

What do the screens show for `CO/N=C/c1ccc(N2CCOCC2)c([N+](=O)[O-])c1`?
INS promoter inh: 40.0; HSV augment: inactive; PKD1 kinase inh: 2.5; RGS16-Gao: 95.0; INS promoter inh cell count: 102.1; HSV augment primary fold: 0.91

Results for N#CCCN(Cc1cccs1)C(=O)Nc1ccccc1 ?
HSV augment: inactive; RGS16-Gao: 97.4; HSV augment primary fold: 0.78

Results for O=[N+]([O-])c1ccc(-c2ccc(/C=N/Nc3nc(N4CCCCC4)nc(N4CCCCC4)n3)o2)cc1 ?
INS promoter inh: inactive; PKD1 kinase inh: 0.1; RGS16-Gao: 108.8; INS promoter inh cell count: 90.9

What do the screens show for `C/C(NC(=O)c1ccccc1F)=C1\C(=O)C[C@@H]2[C@H]1C2(C)C`?
GALR2 agonist: -0.7; HSV augment: inactive; PKD1 kinase inh: -8.1; RGS16-Gao: 99.3; HSV augment primary fold: 0.94

Results for O=C1C=C(NNC(=O)c2ccccc2Br)CCC1 ?
GALR2 agonist: -0.6; INS promoter inh: -33.3; HSV augment: inactive; PKD1 kinase inh: -11.6; RGS16-Gao: 101.6; INS promoter inh cell count: 97.9; HSV augment primary fold: 0.98

What do the screens show for `COc1ccc(-c2nc(CCNC(=O)c3ccc(Br)o3)cs2)cc1`?
GALR2 agonist: -1.9; HSV augment: inactive; PKD1 kinase inh: 5.1; RGS16-Gao: 106.3; HSV augment primary fold: 0.9

Results for CCn1c(NCc2c[nH]c3ccccc23)nc2ccccc21 ?
GALR2 agonist: -1.0; INS promoter inh: 20.0; HSV augment: inactive; PKD1 kinase inh: -0.8; INS promoter inh cell count: 77.0; HSV augment primary fold: 0.85

What do the screens show for `COc1ccc(C2=NN(C(=O)CN3CCCC3)C(c3ccc(OC)cc3)C2)cc1` (configuration not stated)?
HSV augment: inactive; RGS16-Gao: 105.2; HSV augment primary fold: 0.84

What do the screens show for `O=C(NC(=S)Nc1ccc(Oc2ccc(Cl)cc2)cc1)c1ccccc1`?
GALR2 agonist: -3.2; INS promoter inh: -26.9; HSV augment: inconclusive; PKD1 kinase inh: 1.6; RGS16-Gao: 99.4; INS promoter inh cell count: 65.1

Results for CCOC(=O)CSc1nc2cc(C(=O)N3CCC(C(N)=O)CC3)ccc2c(=O)n1C1CCCCC1 ?
INS promoter inh: 14.3; HSV augment: inactive; PKD1 kinase inh: -3.4; RGS16-Gao: 102.2; INS promoter inh cell count: 91.3; HSV augment primary fold: 0.94

Results for O=C(O)/C=C\C(=O)Nc1cc(O)ccc1[N+](=O)[O-] ?
HSV augment: inactive; RGS16-Gao: 94.9; HSV augment primary fold: 0.96

Results for CCNC(=S)N1CCC(c2nc3ccccc3s2)CC1 ?
GALR2 agonist: -0.6; INS promoter inh: 3.3; HSV augment: inactive; PKD1 kinase inh: -3.1; RGS16-Gao: 96.8; INS promoter inh cell count: 91.2; HSV augment primary fold: 0.66

How did Cc1ccc(Oc2ccccc2/C=C/C(=O)O)cc1 do in these assays?
GALR2 agonist: -1.4; HSV augment: inactive; PKD1 kinase inh: -2.4; RGS16-Gao: 132.8; HSV augment primary fold: 0.88

Results for Cc1ccc(-c2nc(C3CCN(S(=O)(=O)c4ccc(C(C)(C)C)cc4)CC3)no2)cc1 ?
GALR2 agonist: -0.4; HSV augment: inactive; PKD1 kinase inh: 10.5; RGS16-Gao: 94.8; HSV augment primary fold: 0.99

Results for N#C/C(=C\c1cccnc1)c1nc2ccccc2[nH]1 ?
HSV augment: inactive; RGS16-Gao: 105.9; HSV augment primary fold: 1.07

How did CCN(CC)CCn1c(=S)[nH]c2cc(Cl)ccc2c1=O do in these assays?
GALR2 agonist: -3.7; HSV augment: inactive; PKD1 kinase inh: -1.2; RGS16-Gao: 96.6; HSV augment primary fold: 0.96

Results for CN(C)c1ccc(C(c2ccc(N(C)C)cc2)c2ccc([N+](=O)[O-])cc2)cc1 ?
HSV augment: inactive; RGS16-Gao: 98.2; HSV augment primary fold: 1.35

Results for O=Cc1c(N2CCC3(CC2)OCCO3)nc2ccccn2c1=O ?
HSV augment: inactive; RGS16-Gao: 101.2; HSV augment primary fold: 1.04

What do the screens show for `COc1cc(/C=N/NC(=O)c2ccccc2)ccc1O`?
HSV augment: inactive; PKD1 kinase inh: -4.3; RGS16-Gao: 95.6; HSV augment primary fold: 0.93

What do the screens show for `CC(=O)N=c1c(C#N)cc2c(=O)n3cccc(C)c3nc2n1CCCOC(C)C`?
HSV augment: inactive; RGS16-Gao: 89.5; HSV augment primary fold: 1.13

How did CC(=O)c1cccc(NC(=O)c2ccc(OC3CSC3)cc2)c1 do in these assays?
HSV augment: inactive; PKD1 kinase inh: -1.9; RGS16-Gao: 99.2; HSV augment primary fold: 1.01

How did OC(COCCC12CC3CC(CC(C3)C1)C2)CN1CCCC1 (configuration not stated) do in these assays?
HSV augment: inactive; PKD1 kinase inh: -1.6; RGS16-Gao: 100.4; HSV augment primary fold: 0.92

How did O=C(Nc1nc(-c2cc(Cl)sc2Cl)cs1)c1ccc(Br)s1 do in these assays?
GALR2 agonist: -0.3; INS promoter inh: 27.0; HSV augment: inactive; PKD1 kinase inh: 0.4; RGS16-Gao: 102.5; INS promoter inh cell count: 131.9; HSV augment primary fold: 1.03

What do the screens show for `O=c1[nH]c(-[n+]2ccccc2)c(/C=N/NC([S-])=Nc2ccccc2)s1`?
HSV augment: inconclusive; RGS16-Gao: 99.8

How did CCOc1ccc(N=C(C)C2=C(O)c3ccccc3C2=O)cc1 do in these assays?
HSV augment: inactive; RGS16-Gao: 100.3; HSV augment primary fold: 1.01

Results for Cc1ccc(NC(=O)COc2ccc(-n3ccnc3)cc2)cc1Cl ?
GALR2 agonist: -3.4; INS promoter inh: 23.3; HSV augment: inactive; PKD1 kinase inh: 9.9; RGS16-Gao: 102.4; INS promoter inh cell count: 137.5; HSV augment primary fold: 0.86

What do the screens show for `COc1ccc(CC2NCCC3(O)CCCCC23)cc1` (configuration not stated)?
GALR2 agonist: -0.2; HSV augment: inactive; PKD1 kinase inh: 1.0; RGS16-Gao: 107.5; HSV augment primary fold: 1.06

How did Cc1ccc(C(=O)c2oc3ccccc3c2NC(=O)c2cc(-c3cc(C)ccc3O)n[nH]2)cc1 do in these assays?
HSV augment: inactive; RGS16-Gao: 106.7; HSV augment primary fold: 0.77

How did CCOc1ccc(Br)cc1S(=O)(=O)Nc1ccccc1N1CCOCC1 do in these assays?
GALR2 agonist: -1.6; INS promoter inh: -80.0; HSV augment: inactive; PKD1 kinase inh: -17.5; RGS16-Gao: 97.4; INS promoter inh cell count: 110.3; HSV augment primary fold: 0.61
